Screening data deposited in PubChem BioAssay by Broad Institute.
MLL AF4-AF9 inh – inhibitors of AF4 peptide binding to AF9, primary screen, biochemical, AlphaScreen, biotin-AF4 peptide, FLAG-AF9, single point; Protein AF-9 (Homo sapiens), P42568; inhibition, % at 10 µM; 350,000 compounds, 0.47% hits; AID 651704, 2012;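 active = every replicate reaching a set inhibition limit, whatever the replicate mean, cut at about 25% in these data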;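 note: 0% = plate neutral control median and 100% = total signal loss; the record names both 10 and 1 µM as test concentration; the first replicate is given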
Target sequence (P42568 whole entry, looked up): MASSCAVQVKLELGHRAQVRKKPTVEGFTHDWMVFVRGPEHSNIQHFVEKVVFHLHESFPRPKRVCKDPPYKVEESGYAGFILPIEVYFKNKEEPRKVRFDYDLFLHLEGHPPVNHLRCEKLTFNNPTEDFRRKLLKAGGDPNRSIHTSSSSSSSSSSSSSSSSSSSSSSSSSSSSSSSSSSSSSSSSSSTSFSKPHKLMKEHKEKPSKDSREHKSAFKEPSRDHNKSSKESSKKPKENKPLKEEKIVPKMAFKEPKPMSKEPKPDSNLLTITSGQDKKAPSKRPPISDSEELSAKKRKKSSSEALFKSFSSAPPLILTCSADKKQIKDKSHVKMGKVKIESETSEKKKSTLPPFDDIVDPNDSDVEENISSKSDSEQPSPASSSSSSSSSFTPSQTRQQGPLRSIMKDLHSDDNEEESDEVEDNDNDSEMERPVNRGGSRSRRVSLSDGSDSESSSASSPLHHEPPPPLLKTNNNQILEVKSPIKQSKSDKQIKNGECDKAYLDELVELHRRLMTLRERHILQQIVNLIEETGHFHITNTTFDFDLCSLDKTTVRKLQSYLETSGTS
FGF22 binding – binders of human FGF22 protein, primary screen, FGF22 synaptogenesis inhibitor project, biophysical, thermal shift, single point; Fibroblast growth factor 22 (Homo sapiens), Q9HCT0; recombinant FGF22 thermal shift, SYPRO orange fluorescence; percent of sucrose octasulfate shift, DMSO zero; calls only at 9.99 µM; 340,000 compounds, 1.5% hits; AID 651658, 2012;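 active = melting point raised past a set limit in the mean and every replicate; three in four hits are not shown here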
Target sequence (Q9HCT0 whole entry, looked up): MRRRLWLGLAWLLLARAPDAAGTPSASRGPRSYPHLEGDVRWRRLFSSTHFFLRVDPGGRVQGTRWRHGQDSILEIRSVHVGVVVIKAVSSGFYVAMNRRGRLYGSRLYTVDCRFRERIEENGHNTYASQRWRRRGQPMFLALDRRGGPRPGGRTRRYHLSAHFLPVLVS
* = called active by the depositor; i = inactive.

Value order: FGF22 binding, MLL AF4-AF9 inh
C[C@@H]1CN([C@H](C)CO)C(=O)CCCn2cc(nn2)CO[C@H]1CN(C)C(=O)NC1CCCC1
  i, -0.8
COCC(=O)Nc1ccc2c(c1)C(=O)N(C)[C@H]1CC[C@H](CC(=O)NCc3cccc(F)c3)O[C@@H]1CO2
  i, -3.1
CCC(=O)Nc1ccc2c(c1)C(=O)N(C)C[C@@H](OC)[C@@H](C)CN(C(=O)CC1CC1)[C@H](C)CO2
  i, -0.7
C[C@@H]1CN([C@H](C)CO)C(=O)c2cccc(NC(=O)c3ccc(-c4nccs4)cc3)c2O[C@H]1CN(C)Cc1ccc(C(=O)Nc2ccccc2N)cc1
  i, 2.6
O=C(C[C@@H]1CC[C@@H]2[C@H](COC[C@@H](O)CN2Cc2ccccc2)O1)N[C@@H]1CCN(Cc2ccccc2)C1
  i, 5.2
C[C@@H]1CN([C@H](C)CO)C(=O)Cc2cc(NC(=O)Nc3cccc4ccccc34)ccc2O[C@H]1CN(C)Cc1ccc(Oc2ccccc2)cc1
  i, -2.9
CC=Cc1ccc2n(c1=O)C[C@H]1[C@H](CO)[C@@H](C(=O)NCC(F)(F)F)[C@@H]2N1C(C)=O (mixture of isomers)
  i, -0.1
N#C[C@H]1[C@@H](c2ccccc2-c2ccccc2F)[C@H](CO)N1C(=O)C1CC1
  i, -1.2
C[C@@H]1CN([C@H](C)CO)C(=O)c2cc(NC(=O)c3ccncc3)ccc2O[C@H]1CN(C)S(C)(=O)=O
  i, -3.5
CN1c2ccc(C3=CCCCC3)cc2[C@@H]2[C@@H](CCN2C(=O)C2CCOCC2)[C@H]1CO
  i, 3.2
O=C(C[C@H]1CC[C@@H](NC(=O)c2ccc3c(c2)OCO3)[C@H](CO)O1)NCc1ccc(F)cc1
  i, 3.5
C[C@H](CO)N1C[C@H](C)[C@H](CN(C)C(=O)c2ccncc2)Oc2ncc(C3=CCCCC3)cc2C1=O
  i, -4.4
CN1C(=O)c2cc(NC(=O)c3ccccc3)ccc2OC[C@H]2O[C@@H](CC(=O)O)CC[C@@H]21
  i, -0.8
COc1ccc(NC(=O)Nc2ccc3c(c2)C(=O)N([C@H](C)CO)C[C@H](C)[C@@H](CN(C)C(=O)C2CCCCC2)OCCCC[C@H](C)O3)cc1
  i, -3.1
CCC(=O)N(C)C[C@@H]1Oc2cc(C#CCOC)ccc2S(=O)(=O)N([C@@H](C)CO)C[C@H]1C
  i, 1.4
N#C[C@H]1[C@@H](c2ccccc2-c2cccc(F)c2)[C@@H](CO)N1C(=O)C1CCC1
  i, -1.1
Cc1noc(C)c1NC(=O)N(C)C[C@@H]1Oc2ccc(NC(=O)Cc3ccccc3)cc2C(=O)N([C@@H](C)CO)C[C@H]1C
  i, 0.2
C=CCN1C[C@@H](COCc2ccccc2)OCCS1(=O)=O
  i, -1.5
C[C@@H]1CN([C@@H](C)CO)C(=O)c2cc(NC(=O)CCN3CCOCC3)ccc2O[C@@H]1CN(C)C(=O)Nc1ccc2c(c1)OCO2
  i, -2.7
COc1ccc([Si](C)(C)[C@@H]2[C@@H](CCO)O[C@]3(C(=O)N(Cc4ccc(NC(=O)[C@H](C)O)cc4)c4ccccc43)[C@H]2C)cc1
  i, -4.3

Value order: FGF22 binding, MLL AF4-AF9 inh
C[C@H](CO)N1C[C@H](C)[C@@H](CN(C)Cc2ccccc2)Oc2ccc(NC(=O)Nc3ccc(F)cc3)cc2C1=O
  i, -5.0
C[C@H](CO)N1C[C@H](C)[C@H](CN(C)Cc2ccncc2)OCCCC[C@H](C)Oc2ccc(NS(=O)(=O)c3ccc(F)cc3)cc2C1=O
  i, 0.3
C[C@H]1CN([C@@H](C)CO)C(=O)CCCn2nncc2CO[C@H]1CN(C)Cc1ccc(Cl)c(Cl)c1
  i, 1.7
CCCNC(=O)N[C@@H]1CC[C@H](CC(=O)NCCc2ccccc2)O[C@@H]1CO
  i, -3.3
Cc1ccccc1-c1cnc2c(c1)C(=O)N([C@@H](C)CO)C[C@@H](C)[C@@H](CN(C)Cc1ccncc1)O2
  i, -3.5
Cc1ccc(S(=O)(=O)Nc2ccc3c(c2)C(=O)N([C@@H](C)CO)C[C@H](C)[C@H](CN(C)Cc2ccc(Cl)c(Cl)c2)O3)cc1
  i, 3.2
COc1ccc(S(=O)(=O)Nc2ccc3c(c2)C(=O)N([C@H](C)CO)C[C@H](C)[C@H](CN(C)Cc2ccc(C(F)(F)F)cc2)OCCCC[C@@H](C)O3)cc1
  i, 2.3
C=CC[C@@]1(C(=O)OC)N=C(c2ccc(OCCCO)cc2)O[C@@H]1c1ccccc1CN=[N+]=[N-]
  i, 6.4
C[C@@H]1CN([C@@H](C)CO)C(=O)c2cc(NC(=O)C3CC3)ccc2O[C@H]1CN(C)S(=O)(=O)c1cn(C)cn1
  i, -2.3
CN(C)CC(=O)N1[C@@H](CO)[C@@H](c2ccccc2)C12CN(C(=O)c1ccccc1)C2
  i, 0.0
COc1ccc(C#Cc2ccc3c(c2)O[C@H](CN(C)C)[C@H](C)CN([C@H](C)CO)S3(=O)=O)cc1
  i, 12
C#Cc1ccc([C@H]2C=C(C(=O)N3CCCCCCC3)O[C@@H](OCC)[C@@H]2CCCO)cc1
  i, 0.7
C[C@@H]1CN([C@@H](C)CO)S(=O)(=O)c2ccc(C#CCN(C)C)cc2O[C@@H]1CN(C)C(=O)c1ccccc1F
  i, 1.9
CO[C@H]1CN(C)C(=O)c2ccc(NC(=O)c3cc(C)on3)cc2OC[C@H](C)N(C(C)=O)C[C@@H]1C
  i, 0.7
COc1ccc(S(=O)(=O)Nc2ccc3c(c2)CC(=O)N([C@@H](C)CO)C[C@H](C)[C@@H](CN(C)S(=O)(=O)c2ccc(C)cc2)O3)cc1
  i, 0.1
COc1ccc(NC(=O)Nc2ccc3c(c2)CC(=O)N([C@H](C)CO)C[C@H](C)[C@@H](CN(C)C(=O)NC2CCCCC2)O3)cc1
  i, 3.5
O=C(NCc1ccccc1)[C@@H]1CCCN1C(=O)[C@H]1CCCN1C(=O)c1ccc(OC(F)(F)F)cc1
  i, -4.2
COc1ccc2c3c([nH]c2c1)[C@@H](CO)NCC31CCN(C(=O)C2CCOCC2)CC1
  i, -2.6
COc1ccc(NC(=O)N(C)C[C@H]2OCc3ccccc3-c3ccccc3C(=O)N([C@@H](C)CO)C[C@H]2C)cc1
  i, -2.5
COc1cccc(C#Cc2ccc3c(c2)O[C@@H](CN(C)C)[C@H](C)CN([C@@H](C)CO)S3(=O)=O)c1
  i, 13

Value order: FGF22 binding, MLL AF4-AF9 inh
C[C@@H]1CN([C@@H](C)CO)C(=O)c2cc(NS(C)(=O)=O)ccc2O[C@H]1CN(C)Cc1ccc(-c2ccccc2)cc1
  i, 4.7
COc1ccc2c3c([nH]c2c1)[C@H](CO)N(C(=O)Nc1ccc(F)cc1)CC31CN(C(=O)Nc2ccccc2)C1
  i, 5.4
O=C(NCCN1CCCC1)[C@@H]1[C@@H](CO)[C@@H]2Cn3c(cccc3=O)[C@@H]2N1C(=O)c1ccccc1
  i, 0.8
Cc1noc(C)c1S(=O)(=O)N(C)C[C@@H]1Oc2ccc(NC(=O)Cc3cn(C)c4ccccc34)cc2CC(=O)N([C@@H](C)CO)C[C@H]1C
  i, 6.3
Cc1ccccc1-c1ccc([C@@H]2[C@@H](CO)N3CCCCN(C(=O)NC4CCCC4)C[C@H]23)cc1
  i, -0.3
COc1ccc2c3c(n(C)c2c1)[C@@H](CO)N(C(=O)Cc1ccccn1)CC31CN(C)C1
  i, 17
COc1ccc(CN(C)C[C@@H]2OCCCC[C@H](C)Oc3ccc(NC(=O)NC4CCCCC4)cc3C(=O)N([C@@H](C)CO)C[C@H]2C)cc1
  i, 4.9
C[C@H](CO)N1C[C@H](C)[C@@H](CN(C)S(=O)(=O)c2ccc(F)cc2)OCCCC[C@H](C)Oc2ccc(NS(=O)(=O)c3cccs3)cc2C1=O
  i, 0.5
N#Cc1ccc(OCCCN2CCC(C(O)(C3=CCCC3)c3ccccc3)CC2)cc1 (stereo not given)
  i, -0.6
C[C@@H]1CN([C@H](C)CO)C(=O)c2cccc(NC(=O)Nc3ccccc3)c2O[C@H]1CN(C)C(=O)Nc1ccc(C(F)(F)F)cc1
  i, 0.6
Cc1ccc(S(=O)(=O)N[C@@H]2CC[C@H](CCNC(=O)C3CCOCC3)O[C@H]2CO)cc1
  i, -5.6
C[C@@H]1CN([C@@H](C)CO)C(=O)c2cccc(NC(=O)NC3CCCCC3)c2O[C@@H]1CN(C)Cc1ccc(C(=O)O)cc1
  i, -11
C[C@@H]1CCCCO[C@H](CN(C)S(=O)(=O)c2cn(C)cn2)[C@@H](C)CN([C@@H](C)CO)C(=O)c2cc(NC(=O)NC3CCCCC3)ccc2O1
  i, -1.2
COc1ccccc1NC(=O)N[C@H]1CC[C@H](CCn2cc(C3(O)CCCC3)nn2)O[C@@H]1CO
  i, -0.5
CC(=O)N(C)C[C@H]1Oc2cc(C#Cc3ccccc3F)ccc2S(=O)(=O)N([C@H](C)CO)C[C@H]1C
  i, -2.8
C[C@H]1CN([C@@H](C)CO)C(=O)c2cc(-c3ccc(C#N)cc3)cnc2O[C@@H]1CN(C)C(=O)CC1CC1
  i, -3.6
C[C@@H]1CN([C@H](C)CO)C(=O)c2cc(C3=CCCCC3)cnc2O[C@@H]1CN(C)C(=O)c1ccc2c(c1)OCO2
  i, -4.2
O=C(C[C@@H]1CC[C@H]2NC[C@@H](O)COC[C@@H]2O1)NCc1ccc(Oc2ccccc2)cc1
  i, 0.8
CC(C)CC#Cc1cnc2c(c1)C(=O)N([C@@H](C)CO)C[C@H](C)[C@@H](CN(C)Cc1ccc3c(c1)OCO3)O2
  i, 12
O=C([C@H]1[C@H](CO)[C@H]2Cn3c(cccc3=O)[C@@H]1N2S(=O)(=O)c1ccccc1F)N1CCOCC1
  i, -0.9

Some of the entries so far, with each value named:
smiles: N#C[C@H]1[C@@H](c2ccccc2-c2ccccc2F)[C@H](CO)N1C(=O)C1CC1
  FGF22 binding: i
  MLL AF4-AF9 inh: -1.2

smiles: C[C@@H]1CN([C@H](C)CO)C(=O)c2cc(NC(=O)c3ccncc3)ccc2O[C@H]1CN(C)S(C)(=O)=O
  FGF22 binding: i
  MLL AF4-AF9 inh: -3.5

smiles: CN1c2ccc(C3=CCCCC3)cc2[C@@H]2[C@@H](CCN2C(=O)C2CCOCC2)[C@H]1CO
  FGF22 binding: i
  MLL AF4-AF9 inh: 3.2

smiles: O=C(C[C@H]1CC[C@@H](NC(=O)c2ccc3c(c2)OCO3)[C@H](CO)O1)NCc1ccc(F)cc1
  FGF22 binding: i
  MLL AF4-AF9 inh: 3.5

Other compounds.
Value order: FGF22 binding, MLL AF4-AF9 inh
CO[C@@H]1CN(C)C(=O)c2ccc(NC(=O)Cc3ccccc3)cc2OC[C@H](C)N(CC2CC2)C[C@H]1C
  i, -0.4
COc1ccc(NC(=O)N(C)C[C@H]2Oc3ccc(NC(=O)Cc4cn(C)c5ccccc45)cc3C(=O)N([C@@H](C)CO)C[C@H]2C)cc1
  i, 4.0
CCCNC(=O)[C@H]1[C@H](CO)[C@H]2Cn3c(cccc3=O)[C@@H]1N2C(=O)Nc1cc(F)ccc1F
  i, 0.9
COCC(=O)Nc1ccc2c(c1)C(=O)N(C)C[C@@H](OC)[C@H](C)CN(C(=O)CC1CC1)[C@H](C)CO2
  i, -0.2
CO[C@H]1CN(C)C(=O)c2cc(NS(=O)(=O)c3ccccc3)ccc2OC[C@H](C)N(Cc2nccs2)C[C@@H]1C
  i, 0.4
Cc1cccc(CN(C)C[C@@H]2Oc3ncc(-c4ccc(F)cc4)cc3C(=O)N([C@H](C)CO)C[C@@H]2C)c1
  i, -3.4
CO[C@@H]1CN(C)C(=O)c2cc(NC(=O)C3CCC3)ccc2OC[C@H](C)N(Cc2nccs2)C[C@H]1C
  i, -0.9
CC(C)NC(=O)Nc1ccc2c(c1)C(=O)N([C@H](C)CO)C[C@@H](C)[C@H](CN(C)C(=O)Nc1ccc3c(c1)OCO3)O2
  i, -3.0
O=C(C[C@H]1CC[C@H](NC(=O)C2CCOCC2)[C@H](CO)O1)Nc1ccc(-c2ccccc2)cc1
  i, -0.6
O=C(C[C@@H]1CC[C@@H]2[C@H](COC[C@@H](O)CN2Cc2ccccc2)O1)NCc1ccccc1Cl
  i, -0.7
C[C@@H](NC(=O)C[C@@H]1C[C@@H]2c3cc(NS(=O)(=O)c4ccc(F)cc4)ccc3O[C@@H]2[C@H](CO)O1)c1ccccc1
  i, -0.2
C[C@H]1CN([C@@H](C)CO)C(=O)Cc2cc(NC(=O)Nc3ccc(C(F)(F)F)cc3)ccc2O[C@@H]1CN(C)Cc1ccncc1
  i, 0.9
O=C(C[C@@H]1C=C[C@H](NC(=O)C2CC2)[C@H](CO)O1)Nc1nccs1
  i, 1.2
Cc1noc(C)c1S(=O)(=O)Nc1ccc2c(c1)C(=O)N([C@@H](C)CO)C[C@H](C)[C@H](CN(C)C(=O)Nc1ccc(C(F)(F)F)cc1)OCCCC[C@H](C)O2
  i, -1.0
COCC(=O)N(C)C[C@H]1Oc2ncc(-c3ccccc3OC)cc2C(=O)N([C@@H](C)CO)C[C@H]1C
  i, -4.8
COc1ccccc1-c1ccc([C@H]2[C@@H](C#N)N[C@@H]2CO)cc1
  i, -1.4

An excerpt; rates above refer to the full screens.
